# Source: PubChem
# MLL AF4-AF9 inh – inhibitors of AF4 peptide binding to AF9, primary screen, biochemical, AlphaScreen, biotin-AF4 peptide, FLAG-AF9, single point; Protein AF-9 (Homo sapiens), P42568; inhibition, % at 10 µM; actives 0.47% (n = 350,000);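 active = every replicate reaching a set inhibition limit, whatever the replicate mean, cut at about 25% in these data; inconclusive = mean inhibition reaches that limit but some replicates miss it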;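 note: 0% = plate neutral control median and 100% = total signal loss; the record names both 10 and 1 µM as test concentration; the first replicate is given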
# Target sequence (P42568 whole entry, looked up): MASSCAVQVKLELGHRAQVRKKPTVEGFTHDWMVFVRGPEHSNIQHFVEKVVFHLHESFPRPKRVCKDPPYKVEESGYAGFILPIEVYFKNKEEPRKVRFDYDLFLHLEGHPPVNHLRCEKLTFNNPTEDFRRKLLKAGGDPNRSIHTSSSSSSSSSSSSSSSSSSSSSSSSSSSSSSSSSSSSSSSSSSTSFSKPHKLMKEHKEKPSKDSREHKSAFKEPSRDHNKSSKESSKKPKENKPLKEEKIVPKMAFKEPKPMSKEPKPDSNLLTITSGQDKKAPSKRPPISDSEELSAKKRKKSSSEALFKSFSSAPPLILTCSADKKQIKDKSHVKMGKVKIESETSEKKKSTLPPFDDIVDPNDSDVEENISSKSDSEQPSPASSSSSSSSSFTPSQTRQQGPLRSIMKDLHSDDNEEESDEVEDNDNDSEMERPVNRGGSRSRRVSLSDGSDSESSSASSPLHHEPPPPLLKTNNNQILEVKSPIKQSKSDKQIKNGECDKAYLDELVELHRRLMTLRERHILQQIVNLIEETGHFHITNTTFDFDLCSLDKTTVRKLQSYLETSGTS
# rRNA inh HTS – reduced GFP signal of wild-type E. coli, primary screen, bacterial rRNA inhibitor project, GFP/RFP fluorescence, OD600, single point; E. coli WT GFP vs humanized-ribosome RFP mutants, 24 h; stronger effect = lower value; DMSO median 0, no signal -100; GFP signal change (wild-type ribosome), % (concentration not given with the values); actives 1.6% (n = 350,000); AID 720706, 2013;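 active = significant combined selectivity score with lowered wild-type GFP, culture density cut under 30%, mutant RFP and density less affected; inactive = any of these conditions unmet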; note: one replicate is shown; some compounds called inactive have numbers as strong as hits
# FGF22 binding – binders of human FGF22 protein, primary screen, FGF22 synaptogenesis inhibitor project, biophysical, thermal shift, single point | recombinant FGF22 thermal shift, SYPRO orange fluorescence; percent of sucrose octasulfate shift, DMSO zero | actives 1.5% (n = 340,000) | Fibroblast growth factor 22 (Homo sapiens), Q9HCT0 | calls only at 9.99 µM;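 active = melting point raised past a set limit in the mean and every replicate; inconclusive = no clear call; three in four hits are not shown here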
# Target sequence (Q9HCT0 whole entry, looked up): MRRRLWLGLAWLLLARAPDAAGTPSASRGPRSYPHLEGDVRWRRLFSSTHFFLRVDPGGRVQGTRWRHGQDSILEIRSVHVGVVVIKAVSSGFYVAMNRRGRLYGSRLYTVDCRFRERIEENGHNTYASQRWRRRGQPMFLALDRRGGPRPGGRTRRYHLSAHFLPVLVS
# Ecoli growth – E. coli growth inhibition, primary screen, OD600; Escherichia coli growth, 23 h; stronger effect = lower value; OD600 absorbance (concentration not given with the values); actives 0.21% (n = 330,000);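 active = OD600 absorbance below the run mean of sample wells minus 3.6 SD, in any replicate, cut at about 0.56 in these data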;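 note: stock transfer was 300 nL into about 60 µL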
# Beta cell apopt – inhibitors of cytokine-induced beta cell apoptosis, primary screen, luminescence. INS-1E cytokine-induced death, ATP luminescence, 48 h; percent of positive-control rescue, neutral wells zero. actives 0.8% (n = 300,000). protection from apoptosis, % (test concentration not listed);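 active = all replicates at 75% or more, or half of them and the mean; inconclusive = half reach 75% but not the mean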;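 note: 0% = cytokine-treated negative control wells and 100% = positive control rescue; higher means more ATP so stronger rescue from cytokine killing; wells of about 40 µL received 100 nL stock; the first replicate is given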
# A1 inh – caspase 3/7 activation in MEF A1-2A-BIM cells, primary screen, A1 inhibitor project, cell-based, luminescence, HTS; caspase activation, % (no concentration beside the values); Caspase-Glo 3/7 luminescence, 3 h; percent of clofoctol response, vehicle zero; actives 0.066% (n = 330,000);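 active = over half of replicate activation scores above 10%, or exactly half above 10 with the replicate mean above 10; inconclusive = replicate mean below 10 yet half the replicates above 10; inactive = over half of replicates below 10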;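 note: wells of about 30 µL received 50 nL stock; many hits fall short of the cut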
# T cruzi repl – inhibitors of intracellular T. cruzi growth, primary screen, luminescence, NIH3T3 host cells; inhibition, % (no concentration beside the values); T. cruzi beta-gal in NIH3T3, 90 h; AID 1885, 2009; actives 1.4% (n = 300,000);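 active = mean inhibition across valid replicates above about 55%, limit read from the data; inconclusive = mean below that limit but half or more replicates reach it; inactive = mean below it, under half of replicates reach it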;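 note: signal also drops with host cell toxicity which is not excluded here; 0% = plate median of DMSO wells and 100% = zero luminescence signal; higher percent means less beta-gal luminescence so fewer parasites; stock transfer was 50 nL into about 50 µL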
# UCH37 inh – inhibitors of human UCH37 deubiquitinase, primary screen, biochemical, Ub-AMC cleavage, fluorescence; Ubiquitin carboxyl-terminal hydrolase isozyme L5 (Homo sapiens), Q9Y5K5; purified proteasome/UCH37; inhibition, % (test concentration not listed); actives 0.33% (n = 330,000); AID 588478, 2011;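 active = mean of two replicates above 20%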;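 note: 0% = compound-free wells with enzyme and 100% = wells lacking proteasome; stock transfer was 100 nL into about 20 µL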
# Target sequence (Q9Y5K5 whole entry, looked up): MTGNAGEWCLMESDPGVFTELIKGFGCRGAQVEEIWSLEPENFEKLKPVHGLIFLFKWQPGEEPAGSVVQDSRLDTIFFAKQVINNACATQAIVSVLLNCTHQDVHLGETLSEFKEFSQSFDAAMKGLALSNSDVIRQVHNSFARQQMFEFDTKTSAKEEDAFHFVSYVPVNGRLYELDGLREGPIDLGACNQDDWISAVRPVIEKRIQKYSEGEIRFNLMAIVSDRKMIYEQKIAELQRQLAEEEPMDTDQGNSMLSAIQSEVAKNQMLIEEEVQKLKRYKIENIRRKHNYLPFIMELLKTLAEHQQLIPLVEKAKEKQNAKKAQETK
#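 Material: Human UCH37 enzyme supplied as purified proteasome complex | Schedule: 30 min compound-proteasome preincubation then 25 min substrate reaction, room temperature | Detection: AMC fluorescence from Ub-AMC cleavage, excitation 355 nm, emission 460 nm | Benchmarks: Wells without proteasome as full block, compound-free enzyme plus substrate as uninhibited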
# rRNA inh HTS OD600 – second read-out of rRNA inh HTS, no call of its own (marks repeat the call); OD600 change, %; measured here: OD600 growth;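 optical density of the mix in the first replicate; 0 = DMSO median and -100 = no signal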
# rRNA inh HTS RFP – further read-out of rRNA inh HTS, marked with its call; RFP signal change, %; measured here: RFP humanized mutant strains;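 first replicate; 0 = DMSO median and -100 = no signal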
# * = called active by the depositor; i = inactive; ? = inconclusive; . = not tested or not shown; & = joins results of further samples. Not all compounds are listed, so the mix of outcomes need not match the whole.
Molecule	MLL AF4-AF9 inh	rRNA inh HTS	rRNA inh HTS OD600	rRNA inh HTS RFP	FGF22 binding	Ecoli growth	Beta cell apopt	A1 inh	T cruzi repl	UCH37 inh
COc1cccc(CN2CCN(C(=O)c3ccc(-c4ccccc4)cc3)CC2)c1OC	-0.9	-25	-26	1.3	i	0.62	-3	0.1	26	2.9
Cc1nn(C)cc1C(=O)NNC(=S)Nc1ccc(Cl)cc1	.	.	.	.	.	0.71	0	0.6	-2	2.9
COc1ccc(NC(=O)Cn2c(C)csc2=O)c(OC)c1	-4.3	8	10	-2.5	i	0.66	0	1.2	.	1.7
Cc1ccccc1Nc1nc(-c2ccccc2)c(C(=O)Nc2cccnc2)s1	3.1	-26	-27	-2.2	i	0.7	3	-0.2	21	-12
Cn1c(SCc2nc(-c3ccccc3)no2)nnc1-c1ccco1	.	.	.	.	.	0.73	-3	-1.0	0	0.9
CCn1cc(C(=O)N2CCCC2)c(=O)c2cc(S(=O)(=O)N3CCC(C)CC3)ccc21	-2.9	1	1	-0.6	i	0.7	-2	0.2	-11	2.3
Cc1cc(C)c2nc(NC(=O)C3CCCO3)sc2c1 (centres undefined)	.	.	.	.	.	0.7	4	-1.5	7	4.0
Cc1ccc([N+](=O)[O-])c(OCCN2CCNCC2)c1	-0.5	1	0	3.3	i	0.68	-1	-0.6	-8	5.0
CCOC(=O)C1=NNC(C(=O)c2ccccc2)C1c1ccc(C)cc1 (centres undefined)	2.8	-26*	-20*	-1.4*	i	0.67	-9	-0.1	12	1.9
CCn1c2ccc(C)cc2c2nc3cc(C(=O)O)ccc3nc21	.	.	.	.	.	0.66	22	-2.8	0	0.6
COc1c2ccoc2nc2c(OC)cccc12	-0.3&-5.7	-22*	-16*	-3.3*	i	0.66	1	-1.1	13	-109
CCCS(=O)(=O)c1nc(C)cc(C)c1S(C)(=O)=O	-0.8	25	9	3.4	i	0.69	-5	0.6	-7	0.6
O=[N+]([O-])c1cc(C(F)(F)F)ccc1Sc1ccc2ccccc2n1	5.5	1	-8	-3.4	i	0.64	-1	-0.3	0	4.4
CC(C)(C)OC(=O)C[C@@H]1C/C=C\C[C@H](CC(=O)N[C@H](CO)Cc2ccccc2)C(=O)N[C@H](C(C)(C)C)COC1=O	0.0	-3	0	2.2	i	0.71	.	.	.	-0.4
Cc1ccc2c(c1)NC(=O)C(CC(=O)NCc1cccnc1)O2 (centres undefined)	-0.3	4	7	1.0	i	0.73	6	-0.4	-13	1.1
COc1cccc(NC(=O)Nc2nnc(N3C(C)CCCC3C)s2)c1 (centres undefined)	2.1	-1	5	-2.7	i	0.69	-4	0.1	18	2.1
O=C(CSc1nc2ccccc2s1)NCc1cc([N+](=O)[O-])ccc1O	-6.6	-31*	-19*	-5.7*	i	0.65	7	-0.3	-5	2.6
Cc1nn(C)c(C)c1NC(=O)Nc1cccc(C(F)(F)F)c1	.	.	.	.	.	0.68	0	0.6	5	-0.6
C/C(=N\NC(=O)c1cccc([N+](=O)[O-])c1)c1cccc(NC(=O)C2CC2)c1	1.8	6	16	1.9	i	.	3	0.2	5	.
COC(=O)Cc1cc(=O)oc2cc(O)ccc12	-1.5	12	2	-1.5	.	0.72	-5	-0.1	-13	i
COc1ccc(OC)c(-c2cc(C(=O)Nc3cc(C)n(Cc4ccc(Cl)cc4)n3)no2)c1	.	.	.	.	.	0.73	2	-0.4	44	-2.0
COc1ccc(CCNC(=O)COC(=O)CSc2ccc(C(N)=O)cc2[N+](=O)[O-])cc1OC	-1.7	5	6	0.0	i	0.65	.	.	.	7.0
COc1ccc(OC)c(/C=N/N(CCC#N)C2=NS(=O)(=O)c3ccccc32)c1	-5.9	8	0	2.0	i	.	-2	0.0	16	.
COc1ccc(-c2csc(NC(=O)CN3C(=O)C4CC=CCC4C3=O)n2)cc1 (centres undefined)	-3.1	-5	-14	3.7	i	0.69	-3	-0.5	.	4.5
CCC(C)NC(=O)CSc1nnc(-c2ccoc2C)n1CC1CCCO1 (centres undefined)	.	.	.	.	.	0.71	-3	0.2	-4	4.0
COc1cccc(C(c2c(O)nc(SC)n(C)c2=O)c2c(O)nc(SC)n(C)c2=O)c1	.	.	.	.	.	0.74	6	-0.1	-5	4.0
CN(C(=O)CSc1ccncc1)C1CCCN(Cc2ccccc2F)C1 (centres undefined)	1.0	-3	-3	-0.4	i	0.68	6	3.1	-1	5.8
Cc1ccc(NC(=O)Cn2c(=O)n(CCCCC(=O)NCc3ccco3)c(=O)c3ccccc32)cc1	.	.	.	.	.	0.75	.	-1.0	4	2.6
COc1ccc(OC)c(NC(=O)CN2CCC(C(=O)c3ccc(C)cc3)CC2)c1	.	.	.	.	.	0.71	9	0.5	13	2.0
Cc1ccc(NC(=O)COC(=O)c2nn(C)cc2Cl)cc1	-2.1	7	4	0.8	i	0.68	-2	0.2	-1	-0.3
COc1cc(CCCN2C(=S)NC[C@H]2Cc2ccc(O)cc2)cc(OC)c1OC	0.2	-20	-22	12	i	.	2	0.9	-8	4.4
CCCCN(C(=O)c1cc(-c2ccncc2)nc2ccccc12)c1c(N)n(CC(C)C)c(=O)[nH]c1=O	-5.3	5	11	2.0	i	.	1	0.7	.	.
CN1C(=O)CC(N2CCN(c3ccc(Cl)cc3)CC2)C1=O (centres undefined)	-1.8	.	.	.	i	0.66	0	0.0	-11	0.8
CCCN1CCN(C(=O)c2cccc3c2C(=O)N(CCOC)C3)CC1	-4.8	1	10	-4.1	i	0.68	0	0.3	-20	3.3
O=C(CSc1cccc[n+]1[O-])N1CCc2ccccc21	-8.4	5	5	-0.7	i	0.67	-2	0.4	-3	0.2
COc1ccc(CN=C2NC(=O)CC(C(=O)Nc3ccc(F)cc3)S2)cc1 (centres undefined)	.	.	.	.	.	0.59	-5	-0.8	8	0.7
Cc1cc(C(F)(F)F)n2ncc(-c3cccc(Br)c3)c2n1	0.4	4	3	0.9	i	0.7	-5	?	2	-1.2
Cc1ccc2nc(C)c(C(=O)NN=C3CCCCCC3)n2c1	-1.5	3	0	3.6	i	0.71	-4	1.3	12	1.1
CN(CC(=O)Nc1ccc(F)cc1)C(=O)c1cc2c(s1)CCCCC2	-0.9	6	0	-0.7	i	0.63	-4	0.6	14	5.3
Cc1c(C(=O)NCc2ccccc2)c(-c2ccccc2)nn1-c1ccccc1	.	.	.	.	.	0.71	-6	-0.4	21	0.6
O=C(Cn1c(=O)[nH]c2ccsc2c1=O)NC1CCCCC1	.	.	.	.	.	0.7	-2	0.9	-27	4.2
COc1ccc(COCC(O)CN2CCN(S(=O)(=O)c3ccc(C(C)C)cc3)CC2)cc1 (centres undefined)	3.4	-19	-38	0.7	i	0.67	5	-0.1	.	5.3
CC1(c2ccc(OC(F)F)cc2)NC(=O)N(CC(=O)Nc2ccc(Cl)cc2F)C1=O (centres undefined)	-0.2	-4	-28	-0.5	i	0.68	-3	0.7	17	4.0
CC(C)CN1C(=O)c2ccc(C(=O)Nc3ccccc3C(=O)O)cc2C1=O	-1.6	-19	-14	-5.0	i	0.69	-4	-4.6	-7	6.2
O=C(CCCc1ccccc1)Nc1ccnn1C1CCN(Cc2ccccc2F)CC1	-0.5	2	-19	3.7	i	0.72	3	0.1	3	2.1
O=C(NCCO)C1COc2ccccc2O1 (centres undefined)	-1.9	14	6	-1.0	i	0.66	-6	-0.9	-6	0.6
COc1ccc(-c2nc(N3CCC(C)CC3)[nH]c(=O)c2C#N)cc1	-12	10	6	1.3	i	0.7	3	-0.4	13	-61
CCOC(=O)c1cnc(-n2nc(C)cc2C)nc1Oc1ccc(C(=O)OC)cc1	-8.0	6	-12	4.4	i	0.68	3	0.5	18	2.0
Cc1ccc(-n2ncc3c2CCCC3NC(=O)CCCN2CCCC2=O)cc1C (centres undefined)	0.2	2	-1	1.2	i	0.67	-3	0.5	2	-0.1
CCCCc1c(C)nc(Nc2ccc(OC)cc2)[nH]c1=O	.	.	.	.	.	0.65	10	0.2	-19	1.4

# (next part)
Molecule	MLL AF4-AF9 inh	rRNA inh HTS	rRNA inh HTS OD600	rRNA inh HTS RFP	FGF22 binding	Ecoli growth	Beta cell apopt	A1 inh	T cruzi repl	UCH37 inh
CN1CCC[C@@H]1CCNC(=O)c1c(-c2ccc3c(c2)OCO3)noc1-c1ccsc1	5.8	5	7	8.3	i	.	-3	0.0	.	1.1
Cc1c(Br)c(=O)oc2c(Br)c(O)c(O)cc12	3.4	-47	-48	-15	i	0.62	-1	-0.4	-11	-35
C=CCC1(/C=N/O)CCOC(C)(C)C1 (centres undefined)	-2.0	25	15	4.0	i	.	.	0.8	12	.
CCO[C@H]1OC(C(=O)O)=C[C@@H](c2csc3ccccc23)[C@@H]1CCCO	-4.1&-5.1	4	20	2.5	i	.	-2	-0.8	-22	0.2
N#CC(c1ccc(Cl)cc1)c1ncc(C(F)(F)F)cc1Cl (centres undefined)	.	.	.	.	.	0.62	3	0.0	22	3.2
O=C(NCCC1=CCCCC1)c1ccc(Cl)cc1	.	.	.	.	.	0.65	3	-4.4	5	4.2
O=C(COc1ccc(Cl)cc1Br)NC(=O)NCc1ccccc1	0.1	9	6	1.6	i	0.71	5	-0.5	5	4.2
CCN1N=C(c2ccccc2)Cn2c1nc1ccccc12	.	.	.	.	.	0.77	2	0.1	14	-393
O=C(Nc1cc(Cl)ccc1Cl)C1CC(=O)N(c2ccc(Br)cc2)C1 (centres undefined)	.	.	.	.	.	0.67	3	0.8	-10	3.2
CCN(CC(=O)Nc1c(F)cccc1F)C(=O)c1ccc(N2CCOCC2)c([N+](=O)[O-])c1	1.3	6	5	0.7	.	.	1	0.1	3	.
CC1(C)OC(=CC=Nc2ccc(Cl)cc2)OC1(C)C	-2.1	12	17	1.8	i	0.68	.	0.2	49	-1.3
O=S(=O)(Nc1ccc(N2CCOCC2)cc1)c1cccs1	.	13	8	-5.1	.	.	-2	0.4	22	.
COc1ccc(Oc2c(O)c3ccccc3n(C)c2=O)cc1	-7.5	11	-3	-0.3	i	0.69	0	-0.5	-16	6.9
CC(C)c1ccc(S(=O)(=O)N2CCN(C(C)C(=O)Nc3ccccc3-c3ccccc3)CC2)cc1 (centres undefined)	3.1	2	-8	-5.0	i	0.74	19	0.3	29	0.1
